Biofilm kill mix = mixtures killing C. albicans biofilm; inhibition, % at 7.6 µM; hit rate 0.02% among 120,000; C. albicans biofilm persisters + clotrimazole, fluorescence viability; primary screen in compound mixtures of four per well; AID 1242;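 active = inhibition above 30.3% in the primary screen of four-compound pools, then above 30% when the compound was retested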;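 note: compounds exposed to preformed 24 h biofilms for 48 h; the number belongs to the whole pool; some results filed as inactive read as strong as hits; inactives centre near 12; 0% = biofilm with clotrimazole alone and 100% = kill control; retested singly at about 60 µM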
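Test system: C. albicans biofilms. Buffer or medium: RPMI/MOPS medium, pH 7.0. Timing: 48 h compound exposure at 37 °C. Technique: Alamar Blue fluorescence. Evaluation: percent inhibition of biofilm viability.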
* marks the source's active call; other numbers are inactive results. Not all compounds are listed. The share of hits here may be higher or lower than overall.

Compound	Biofilm kill mix
COc1ccccc1-n1c2nc3ccccc3nc2c2c(=O)n(-c3cc(C)cc(C)c3)cnc21	15.6
O=C(Nc1ccccc1C(=O)N1CCCCCC1)c1ccc(Cl)cc1	7.0
Cc1ccc(S(=O)(=O)CC(CN2CCOCC2)N2CCOCC2)cc1 (stereo not given)	11.5
Cc1ccc([N+](=O)[O-])cc1NC(=O)Nc1ccc(S(N)(=O)=O)cc1	21.6
CC(C)(C)c1ccc(N2C(=O)CSC2c2cccnc2)cc1 (stereo not given)	16.8
CC1=C(C(=O)c2ccccc2)C(c2cccc([N+](=O)[O-])c2)NC(=S)N1 (stereo not given)	23.6
CC(C)Sc1nc(SCC(=O)O)c2c3c(sc2n1)COC(C)(C)C3	17.8
O=C(COc1ccccc1)Nc1ccccc1NS(=O)(=O)c1cccs1	12.6
COC(=O)c1sc(N)c(C(=O)OC)c1COC(=O)CNS(=O)(=O)c1ccc(C)cc1	17.3
CC(NC(=O)C1(c2cccs2)CCOCC1)c1ccccc1 (stereo not given)	9.4
COc1ccc(-c2nc3n(c2C)CCC3)cc1	19.2
c1cn(-c2ccc(-c3ccnc4ncnn34)cc2)cn1	11.7
CC1(C)CC(=O)C=C(NNC(=O)OC(C)(C)C)C1	18.6
CCCCC(=O)NC(=S)Nc1cc(C(=O)O)ccc1OC	15.9
CCC(CC)c1nnc(NC(=O)/C=C/c2ccco2)s1	17.9
Cc1ccc(-n2ncc3c(SCc4ccccn4)ncnc32)c(C)c1	9.4
O=C1CCCC2=C1Sc1ccccc1N2	21.5
O=C(c1ccc(Cl)nc1)N1CCC(Cc2ccccc2)CC1	11.4
CC(C)c1ccc(NC(=S)Nc2ccc3[nH]c(=O)[nH]c3c2)cc1	8.7
CC(CNS(=O)(=O)c1ccccc1)Sc1ncccn1 (stereo not given)	21.8
COc1ccc(CCNC(=O)c2ccc3ccccc3n2)cc1OC	10.4
Cn1c(O)c(C=Nc2ccc(N3CCOCC3)cc2)c(=O)n(C)c1=S	4.9
Cc1cccc(N2CCN(C(=S)NC3CCCCC3)CC2)c1C	16.7
CC(C)(C)NC(=O)C(=O)NNC(=O)c1ccco1	-5.4
Cn1c(=O)c([N+](=O)[O-])c(Cl)c2ccccc21	15.8
Cc1ccn2c(CNCCn3cccn3)c(C(=O)N3CCCCCC3)nc2c1	5.1
Cc1[nH]c(=O)c(C#N)cc1-c1ccncc1	7.2
COc1ccc(C)cc1NC(=O)Nc1cccc(C(=O)O)c1	-0.9
COc1ccc(NC(=S)N(Cc2ccc(C(=O)O)cc2)Cc2ccc(OC)c(OC)c2)cc1	11.9
O=C(NCc1cccnc1)c1cccc(-c2cc3ccccc3oc2=O)c1	9.4

By substructure: the compounds so far containing two or more sulfur atoms (four)
Compound	Biofilm kill mix
CC(C)Sc1nc(SCC(=O)O)c2c3c(sc2n1)COC(C)(C)C3	17.8
O=C(COc1ccccc1)Nc1ccccc1NS(=O)(=O)c1cccs1	12.6
COC(=O)c1sc(N)c(C(=O)OC)c1COC(=O)CNS(=O)(=O)c1ccc(C)cc1	17.3
CC(CNS(=O)(=O)c1ccccc1)Sc1ncccn1 (stereo not given)	21.8

Other records follow.
Compound	Biofilm kill mix
O=C(CSc1nnnn1C1CCCCC1)Nc1ccccc1N1CCOCC1	11.9
COc1ccc(/C=C/c2nc3ccccc3n2Cc2ccc(OC)c(OC)c2)cc1	10.4
Cc1ccccc1CSc1nnc(CCCCCNC(=O)OC(C)(C)C)o1	26.1
Cc1ccc(S(=O)(=O)NNC(=S)NCCc2ccccc2)cc1	20.5
Cc1c(N=C2C=C(Br)C(=O)C(Br)=C2)c(=O)n(-c2ccccc2)n1C	18.9
O=C(C1CCCC1)N1CCN=C1SCc1cccc([N+](=O)[O-])c1	7.6
CCOc1cc(/C=C2\C(=O)N(c3cccc(C(F)(F)F)c3)C(=O)c3ccccc32)ccc1O	13.7
Cc1csc(NC(=O)COCC(=O)O)c1-c1nc2ccccc2s1	9.2
COc1ccc(C2=[N+]([O-])C(C)(C)N(O)C2C)cc1 (stereo not given)	16.3
CN1C(=O)/C(=C/c2cn(CC(=O)NCc3ccco3)c3ccccc23)NC1=S	5.3
COc1cc(OC)cc(C(=O)N[C@H](C(=O)Nc2nc3ccc(S(C)(=O)=O)cc3s2)C(C)C)c1	3.2
CC(=O)/C(C#N)=C1\NC(=O)C(Cc2ccccc2C)S1 (stereo not given)	24.5
CCOc1ccc(C2NC(=O)c3sc(=S)n(-c4ccccc4)c3N2)cc1 (stereo not given)	7.5
CN1CCN(C(=O)c2ccc(N(C)S(=O)(=O)c3cccs3)cc2)CC1	29.3
Cc1cc(N/N=C2/CCCc3ccccc32)nc2ccccc12	5.9
COC(=O)C(CCSC)NC(=O)c1cc2c(n(-c3ccc(C)cc3)c1=O)CCCC2=O (stereo not given)	10.0
COc1ccc(-n2nc([N+](=O)[O-])c(=NCc3cccnc3)n2O)cc1	3.2
COc1ccc(CNC(=O)COC(=O)/C=C/c2cccc(Br)c2)cc1	5.9
CCCCC(=O)N(CCOC)c1nnc(-c2cccnc2)s1	21.7
COC(=O)CN1C(=O)N/C(=C/c2cc3c(cc2OC)OCO3)C1=O	4.2
O=C(NC(=S)Nn1cnc2c(cnn2-c2ccccc2)c1=O)c1ccc(Oc2ccccc2)cc1	8.0
CCOc1ccc(-n2c(=O)c3ccccc3c3ccccc3c2=O)cc1	-3.4
Cc1ccc(OC(=O)c2cccc([N+](=O)[O-])c2)c(-n2nc3ccccc3n2)c1	1.3
CC(C)(C)C1CCC(=NNC(=O)C(=O)NCc2cccnc2)CC1 (stereo not given)	12.0
O=C1OCC/C1=C\c1ccccc1	8.9
CSc1nc(=S)n(Cc2ccccc2)c(C)c1C(C)=O	8.1
CC(=O)c1ccc(Sc2ccccn2)c([N+](=O)[O-])c1	17.3
O=C(NC1CCCC1)C(c1ccsc1)N(CCc1ccccc1)C(=O)Cc1cccs1 (stereo not given)	-9.4
O=C(CCNS(=O)(=O)c1c(Cl)cccc1Cl)OCC(=O)c1ccccc1F	13.7
COC(=O)NC1(C(F)(F)F)C(=O)Nc2c1c(=O)n(C)c(=O)n2C (stereo not given)	-10.1

More results follow.
| SMILES | Biofilm kill mix |
| --- | --- |
| NS(=O)(=O)c1ccc(NC(=O)COC(=O)c2ccc(Cl)cc2[N+](=O)[O-])cc1 | 17.4 |
| O=C(CSc1nncc2ccccc12)Nc1cccc(C(=O)O)c1 | 13.1 |
| NCCCC[C@H]1CNC(=S)N1CC1CCCCC1 | 16.4 |
| O=C(COC(=O)CCC(=O)c1cccs1)Nc1ccc(Cl)cn1 | 4.8 |
| Fc1ccc(Nc2ccnc(Nc3ccc(F)cc3)n2)cc1 | -8.9 |
| COc1cc(C=O)ccc1OCCCOc1ccc([N+](=O)[O-])cc1 | 20.5 |
| COc1ccccc1-c1nnc(NC(=O)CSc2nncn2C)s1 | 16.3 |
| Cn1cc(C(=O)NC2CCCCCC2)c(=O)c2cc(S(=O)(=O)N3CCCC3)ccc21 | 11.4 |
| CC1Cc2ccccc2N1S(=O)(=O)c1cnc(Cl)c(Br)c1 (stereo not given) | 28.6 |
| O=C(COn1nnc2ccc(C(F)(F)F)cc21)Nc1c(Cl)cccc1Cl | 9.4 |
| COc1ccc(Nc2nc(-c3ccccc3)nc3ccccc23)c(OC)c1 | 10.1 |
| Clc1ccc(C[n+]2cc(-c3ccccc3)n3c2CCCCC3)c(Cl)c1 | 12.7 |
| CCN1CCN(C(=O)CN(c2cccc(Br)c2)S(=O)(=O)c2ccccc2)CC1 | -14.1 |
| Cc1cccc(C(C)(C)C)c1OCCOCCN1CCCC1 | 19.8 |
| C/C=C(/C)C(=O)Nc1cccc(C2=NOC3(C2)C[C@@H](C(N)=O)N(C(=O)CC(c2ccccc2)c2ccccc2)C3)c1 (stereo not given in full) | 7.8 |
| Cc1ccc(NC(=O)Nc2ccc3c(c2)OCO3)nc1 | 9.2 |
| O=C1C=C(Nc2ccccc2C(=O)O)c2ccccc2C1=O | 17.8 |
| CN1CCC(=NNC(=O)COc2ccc(Cl)cc2)CC1 | 7.8 |
| CCSc1nc2ccccc2n1CC(=O)O | -4.2 |
| CCCn1c(SCC(=O)N(CC)CC)nnc1-c1ccncc1 | -8.8 |
| C=CCOC(=O)C1=C(C)Nc2[nH]c(=O)[nH]c(=O)c2C1c1cccc(OC)c1 (stereo not given) | 8.0 |
| Cc1nc2cc(-c3ccccc3)sc2c(=O)n1N | 16.1 |
| CC1(C)SC[C@H](C(=O)Nc2cccc(Cl)c2)N1C=O | 1.6 |
| CCOC(=O)c1cnc(SCC(=O)N2CCOCC2)nc1N | 14.2 |
| CC(C)c1ccc(C(=O)NC(=S)NCc2cccnc2)cc1 | 9.2 |
| COC(=O)c1cccc(C23CC4(C2)[C@H](CN(Cc2ccc(-c5ccccc5)cc2)[C@@H]4c2ccccc2)C3c2ccc(Cl)nc2)c1 (stereo not given in full) | 17.8 |
| Cc1cc(C)n2nc(C(=O)NC3CCCc4ccccc43)nc2n1 (stereo not given) | 9.2 |
| CC(C)=CCN1CCN(Cc2cccnc2)CC1CCO (stereo not given) | 9.4 |
| O=C(Cc1ncc(C(F)(F)F)cc1Cl)NCCc1ccccc1 | 2.5 |
| CCn1c(CCNC(=O)c2ccc(OC)cc2)nnc1SCc1ccc(Cl)cc1Cl | 11.9 |
| C/C(=N\NC(=O)CSc1nc(C)cc(C)n1)c1cccc([N+](=O)[O-])c1 | 19.1 |
| O=C(CNC(=O)Cc1ccc(Cl)cc1)NCc1ccco1 | 7.2 |
| CC(=O)Nc1cc(-n2cnnn2)ccc1C | 8.9 |
| CC1CC(=S)Nc2ccccc2S1 (stereo not given) | 17.9 |
| CCOc1c(Cl)cc(CNCC(C)C)cc1Cl | 8.1 |
| O=C(O)CC1=C(Nc2ccccc2)C(=O)N(c2ccccc2)C1c1ccc(Br)cc1 (stereo not given) | 5.7 |
| CCCCN=C1C([N+](=O)[O-])=CC=C2C1=NC1(CCCCC1)N2O | 11.7 |
| CCOC(=O)C1=C(c2ccccc2)NC(N)=NC1c1ccc(OCc2ccc(Cl)cc2)c(OC)c1 (stereo not given) | 17.4 |
| COc1ccc(OC)c(/C=C/c2c([N+](=O)[O-])c(=O)n(C)c(=O)n2C)c1 | 17.5 |
| Cc1cc(C(=O)COC(=O)C(C)NC(N)=O)c(C)n1Cc1ccco1 (stereo not given) | 15.9 |
| COc1ccc(CC(=O)Nc2nc(-c3cccc([N+](=O)[O-])c3)cs2)cc1 | 11.0 |
| O=C(N/N=C/c1ccccn1)c1cc(-c2ccc(Cl)cc2)nc2ccccc12 | 14.4 |
| CCOc1nsc(OCC)n1 | 15.6 |
| COC(=O)N/N=C/c1cc(C)n(-c2ccc(Br)cc2)c1C | 4.4 |
| Nc1ccc(C(=O)OCc2ccncc2)cc1[N+](=O)[O-] | 13.4 |

Of the compounds above, 2 have a cyano group.
| SMILES | Biofilm kill mix |
| --- | --- |
| Cc1[nH]c(=O)c(C#N)cc1-c1ccncc1 | 7.2 |
| CC(=O)/C(C#N)=C1\NC(=O)C(Cc2ccccc2C)S1 (stereo not given) | 24.5 |

The list continues.
| SMILES | Biofilm kill mix |
| --- | --- |
| O=C(Cn1cc([N+](=O)[O-])cn1)NCCc1c[nH]c2ccccc12 | 9.9 |
| CCN1C(=O)[C@@H]2C(C(=O)c3cnccn3)=NN[C@@H]2C1=O | 20.8 |
| CCn1c(NC(=O)C(C)C)c(-c2ccccc2)c(=O)c2ccccc21 | 22.4 |
| CC(=O)Nc1ccccc1OCC(=O)NCC(F)(F)F | 7.4 |
| COc1ccc(CC2(CO)CCN(S(=O)(=O)c3c(C)nn(C)c3C)CC2)cc1 | 11.9 |
| O=C1CC(C(=O)Nc2ccc(Cl)cc2)S/C(=N\N=C\c2ccco2)N1 (stereo not given) | 26.7 |
| CC(C)CN(CC(C)C)C(=O)c1cccc(S(=O)(=O)N2CCc3ccccc32)c1 | 8.1 |
| CC(C)C(=O)Nc1ccc(C(=O)NN2C(=O)c3ccccc3C2=O)cc1 | 10.8 |
| COCCNC(=O)c1cnn2c(C(F)(F)F)cc(-c3ccc(C)cc3)nc12 | 20.4 |
| CCOc1cc(/C=N/O)ccc1OCc1ccc(C)cc1 | 16.7 |
| Cn1cnc([N+](=O)[O-])c1Oc1ccccc1 | 2.9 |
| CCCCNC(=S)NNC(=O)c1cccnc1 | 13.8 |
| Cc1ccc(NC(=O)c2nc[nH]c2C(=O)N2CCN(c3ccccc3)CC2)cc1 | 16.3 |
| Cc1ccc2[nH]c(=O)c(CN(C(=O)c3cccc([N+](=O)[O-])c3)C(C)(C)C)cc2c1 | 26.2 |
| Cc1ccc(NC(=O)Cn2cnc3c(nnn3Cc3ccc(F)cc3)c2=O)cc1 | 9.4 |
| CCCCN(CCCC)CCNC(=O)c1ccc2nc(-c3ccccc3NC(C)=O)c(=O)[nH]c2c1 | 15.7 |
| Nc1c(-c2ccsc2)cnc2ncnn12 | 17.8 |
| Cc1cc(Oc2ccc(=O)n(C)n2)nc(SCCOc2ccccc2)n1 | 27.0 |
| Cc1c(Br)c([N+](=O)[O-])nn1CC(=O)Nc1nccs1 | 3.0 |
| O=C(NCc1ccc(F)cc1)c1nc(-c2cccs2)no1 | 13.3 |
| NS(=O)(=O)c1cccc(NC(=O)COc2ncnc3c2cnn3-c2ccccc2)c1 | 1.7 |
| CC(=O)O/N=C(/c1nonc1N)N(C)C | 12.0 |
| Cc1cc(NS(=O)(=O)c2ccc(NC(=O)c3cc(-c4ccccc4Cl)nc4ccccc34)cc2)no1 | 10.8 |
| COc1ccc(C(C)=O)cc1CSc1nnc(SCc2cc(C(C)=O)ccc2OC)s1 | 19.0 |
| COc1cc(CC(=O)OCC(=O)Nc2ccc([N+](=O)[O-])cc2)cc(OC)c1OC | 10.3 |
| COc1ccccc1/C=C/C=N\N1CCN(Cc2ccccc2Cl)CC1 | 13.9 |
| CCOc1ccc(-n2c(-c3ccco3)nc3c(cnn3-c3ccc(C)cc3)c2=O)cc1 | 24.9 |
| CC(C)(C)C1CCc2c(sc3nc(SCC(N)=O)nc(N)c23)C1 (stereo not given) | -4.8 |

Source: PubChem
